NS1 inh – influenza NS1 inhibition; S. cerevisiae slowed by influenza A NS1, growth recovery by OD600; Potency, µM (highest dose often 46.1 µM), for the others: at the highest dose activity, positive = more growth; AID 2326; hit rate 0.4% among 270,000; active means well fitted rising curve with a large enough effect; inconclusive means small, poorly fitted or top-dose-only effect; inactive means no such curve, though single readings can be large or run the other way; further: nearly all actives have a fitted effect of over 50% in size
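In this qHTS, NS1 from influenza A is expressed in budding yeast, where it slows growth. Cells are switched from glucose to 2% galactose medium (pH 6.0, -URA), treated with compound, and growth recovery is read at OD600.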
SARS PLpro yeast – SARS-CoV PLP inhibition in yeast; S. cerevisiae expressing SARS-CoV PLpro, growth rescue; control for the full effect not named in the record; Potency, µM (top dose mostly 32.9 µM), inactives show top-dose activity, positive = growth rescue; hit rate 0.19% among 330,000; AID 485353; active means well fitted rising curve with a large enough effect; inconclusive means small, poorly fitted or top-dose-only effect; inactive means no such curve, though single readings can be large or run the other way; further: 0% is about no effect; nearly all actives have a fitted effect of over 55% in size; growth read by luminescence after 48 h
Cruzain noTriton – cruzain (T. cruzi) inhibition without detergent | P25779 | purified cruzain, Z-FR-AMC fluorescence, no detergent | Potency, µM, for inactives: max response, negative = inhibition, hits mostly inhibitors | hit rate 2.3% among 200,000 | AID 1476;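 further: plate controls were enzyme without inhibitor for no effect and buffer without enzyme for full effect; nearly all actives have a fitted effect of over 40% in size; top concentration of the series not given in the record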
Target sequence (P25779 123-467 limits assumed): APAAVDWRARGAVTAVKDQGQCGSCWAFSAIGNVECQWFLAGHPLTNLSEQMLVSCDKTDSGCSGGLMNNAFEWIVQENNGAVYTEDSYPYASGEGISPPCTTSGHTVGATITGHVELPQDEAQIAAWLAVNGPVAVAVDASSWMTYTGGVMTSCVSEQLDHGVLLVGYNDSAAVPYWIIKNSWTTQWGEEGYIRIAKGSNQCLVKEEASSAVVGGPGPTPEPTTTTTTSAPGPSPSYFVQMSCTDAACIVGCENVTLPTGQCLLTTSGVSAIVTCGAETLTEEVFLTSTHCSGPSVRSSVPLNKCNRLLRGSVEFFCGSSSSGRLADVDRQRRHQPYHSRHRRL
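Purified cruzain at 1.5 nM, pre-incubated 15 min with compound at room temperature in 100 mM sodium acetate pH 5.5, 5 mM DTT, 0.00005% Triton X-100. Reaction started with 2 uM Z-FR-AMC; AMC fluorescence increase over 60 s gives rate.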
Cruzain Triton – cruzain (T. cruzi) inhibition with detergent. purified cruzain, Z-FR-AMC fluorescence, 0.01% Triton. Potency, µM, without a hit: max response, negative = inhibition, actives largely listed as inhibitors. hit rate 0.43% among 200,000. AID 1478;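 further: plate controls were neutral wells for no effect and buffer without enzyme for full effect; nearly all actives have a fitted effect of over 40% in size; top concentration of the series not given in the record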
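Read-out: AMC fluorescence (360 nm excitation, 450 nm emission), four reads over 2 min, first-to-third difference used. Conditions: cruzain 1.5 nM, Z-FR-AMC 2 uM, pH 5.5 acetate, 5 mM DTT, 0.01% Triton X-100.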
Marburg entry inh – inhibitors of Marburg virus binding or cell entry. Marburg virus pseudotyped entry inhibition, cell reporter; control for the full effect not named in the record; about a third of the inactives were read at about 46 µM. Potency, µM (doses to about 37.8 µM), for the others: top-dose activity change, negative = inhibition, actives largely listed as inhibitors. hit rate 1.8% among 300,000. AID 540276; active = well fitted inhibition curve with a large enough effect; inconclusive = small, poorly fitted or top-dose-only effect, or effect the other way; inactive = flat fitted curve, though single readings scatter; tested in HEK293 cells; about a fifth of its hits are not listed in these tables; further: on the % scale 0 is the no-effect control and ±100 the full control effect; luciferase read-out
StopGo reporter – lowers the luciferase signal of an FMDV 2A StopGo reporter; human cells with a luciferase reporter of 2A StopGo recoding; control for the full effect not named in the record; Potency, µM (doses to about 57.9 µM), for inactives: at the highest dose signal change, negative = less light; hit rate 1.2% among 410,000; active = well fitted falling curve with a large enough effect; inconclusive = small, poorly fitted or top-dose-only effect; inactive = no such curve, though single readings can be large or run the other way; tested in HEK293T cells; further: on the % scale 0 is the no-effect control and ±100 the full control effect; nearly all actives have a fitted effect of over 45% in size; luciferase light after 4 h
RE007 growth inh – less growth of the S. pombe RE007 Vpr strain; S. pombe RE007 Vpr strain, BacTiter-Glo ATP luminescence, 24 h; control for the full effect not named in the record; hit rate 0.21% among 360,000; Potency, µM (doses to about 92.2 µM), without a hit: top-dose activity change, negative = less growth; active = well fitted falling curve with a large enough effect; inconclusive = small, poorly fitted or top-dose-only effect; inactive = no such curve, though single readings can be large or run the other way;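 further: on the % scale 0 is the no-effect control and ±100 the full control effect; nearly all actives have a fitted effect of over 50% in size; the assay follows cell death caused by Vpr and the record does not say whether a fall means rescue or toxicity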
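Fission yeast strain RE007, carrying one chromosomally integrated HIV-1 vpr copy, was seeded at OD 0.01 in PMG+AL medium with 23 nL pinned compound. After 24 h at 30 °C and 99% humidity, viability was read by BacTiter-Glo luminescence.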
Lassa entry inh – blocks Lassa virus binding to or entry into cells | Lassa virus pseudotype entry inhibition, cell reporter; control for the full effect not named in the record | Potency, µM (highest dose often 37.9 µM), for the others: at the top dose activity change, negative = inhibition, most hits filed as inhibitors | hit rate 1.2% among 300,000; active means well fitted inhibition curve with a large enough effect; inconclusive means small, poorly fitted or top-dose-only effect, or effect the other way; inactive means flat fitted curve, though single readings scatter; tested in HEK293 cells; further: on the % scale 0 is the no-effect control and ±100 the full control effect; nearly all actives have a fitted effect of over 50% in size; luciferase read-out
An asterisk follows results filed as active; ? = inconclusive; / = no result given; & = joins results of further samples; [ ] = dose if it differs, or a comment. Unless noted, the call rests on the fitted dose curve; in most records, active means well fitted curve in the direction sought with a large enough effect; inconclusive means small, poorly fitted or top-dose-only effect, or another doubt; inactive means no such curve, though single readings can be large; an effect the other way counts as inactive or inconclusive. Potency means the concentration at half of the fitted maximal effect.

SMILES	NS1 inh	SARS PLpro yeast	Cruzain noTriton	Cruzain Triton	Marburg entry inh	StopGo reporter	RE007 growth inh	Lassa entry inh
Cc1csc2nc(COc3ccc(NC(=O)COc4ccccc4)cc3)cc(=O)n12	/	/	12%	-0.5%	?	?	/	7%[46.1 µM]
Cc1ccc(S(=O)(=O)/N=C2\C=C(Nc3cccc(C(=O)O)c3)C(=O)c3ccccc32)cc1	-21%	-1%	/	/	?	-12%	-24%	?
Cc1ccc(C(=O)c2cn(Cc3ccccc3F)c3cc4c(cc3c2=O)OCO4)cc1	/	/	-4%	2.1%	-3%[46.1 µM]	-23%	/	29%[46.1 µM]
CC(C)CN(CC(C)C)C(=O)CCCC(=O)N(CC(C)C)CC(C)C	-11%	6%	?	-1.9%	15%	?	-15%	-11%
Fc1ccc(NC(=S)NC2CCCCC2)c(F)c1F	-11%	?	13%	-0.9%	-23%	24%	1%	-11%
CSc1ccc(C(=O)C2CCCN(Cc3cccc4nccnc34)C2)cc1 (configuration not stated)	3%	1%	/	/	?	?	-11%	-2%
COc1ccccc1NC(=O)C(=O)c1cc(C)n(-c2ccccc2F)c1C	/	/	8%	-2.1%	-1%[46.1 µM]	-10%	/	-2%[46.1 µM]
CSc1nc(N)nc(SCC(=O)CC(=O)OC(C)C)c1C#N	?	-4%	-2%	-5.8%	-2%	-12%	-7%	-9%
CCN1CN(CCc2ccccc2)CNC1=S	6%	16%	-3%	0.0%	-4%	-7%	-4%	5%
CC(C)N(C(=O)CN1C(=O)NC2(CCCCCC2)C1=O)C(C)C	6%	-11%	?	9.1%	-3%	1%	20%	9%
N#CCC(=O)NNc1c([N+](=O)[O-])cc(C(F)(F)F)cc1[N+](=O)[O-]	3%	1%	/	/	-5%[46.1 µM]	?	?	-1%
CSC(=NC1CCCCC1)NS(=O)(=O)c1ccccc1	-14%	4%	0%	-0.9%	?	20%&21%	7%&-7%	?
NC(=O)c1cc(S(=O)(=O)N2CCN(c3ccc([N+](=O)[O-])cc3)CC2)cs1	5%	-4%	/	/	-21%[46.1 µM]	?	1%	-23%[46.1 µM]
CN(CC(=O)Nc1cccc(F)c1)C(=O)CC1CC2CCC1C2 (configuration not stated)	3%	-3%	/	/	23%[46.1 µM]	-1%	-11%	?
O=C(CN(Cc1ccco1)C(=O)c1ccc(N2CCCC2=O)cc1)Nc1ccccc1C(F)(F)F	/	/	/	/	-10%	4%	-28%	-18%

Arranged by length of the SMILES (low to high): three of the compounds above
SMILES	NS1 inh	SARS PLpro yeast	Cruzain noTriton	Cruzain Triton	Marburg entry inh	StopGo reporter	RE007 growth inh	Lassa entry inh
CN(CC(=O)Nc1cccc(F)c1)C(=O)CC1CC2CCC1C2 (configuration not stated)	3%	-3%	/	/	23%[46.1 µM]	-1%	-11%	?
CC(C)CN(CC(C)C)C(=O)CCCC(=O)N(CC(C)C)CC(C)C	-11%	6%	?	-1.9%	15%	?	-15%	-11%
Cc1ccc(C(=O)c2cn(Cc3ccccc3F)c3cc4c(cc3c2=O)OCO4)cc1	/	/	-4%	2.1%	-3%[46.1 µM]	-23%	/	29%[46.1 µM]

Going on with the list:
SMILES	NS1 inh	SARS PLpro yeast	Cruzain noTriton	Cruzain Triton	Marburg entry inh	StopGo reporter	RE007 growth inh	Lassa entry inh
Cn1nnnc1SCCCNCc1ccccc1OCc1ccccc1F	/	/	-2%	-3.2%	?	-17%	/	-9%[46.1 µM]
COc1ccc(OC)c(NC(=O)c2cc3c(Cl)nc4ccccc4c3s2)c1	27%	9%	10%	-1.5%	1%	-13%	5%	6%
COCCNC(=O)Cn1cc(C(=O)c2cccs2)c2ccccc21	/	/	/	/	14%	10%	6%	19%
CCOC(=O)c1ccc(NC(=O)CCn2cnnn2)cc1	/	/	5%	1.0%	13%[46.1 µM]	-4%	/	2%[46.1 µM]
O=C(NCCc1ccccc1)C1CCCN(c2nc3ccccc3s2)C1 (configuration not stated)	-12%	-1%	/	/	1%[46.1 µM]	8%	-8%	-13%
Cc1ccc(S(=O)(=O)N[C@@H](CC(C)C)C(=O)NCc2ccco2)cc1	12%	16%	-1%	-1.6%	17%	8%	6%	33%
CCc1cc2c(=O)c(-c3nc4ccccc4n3C)c(C)oc2c(CN2CCN(C)CC2)c1O	-5%	14%	-6%	-3.6%	/	/	/	/
CC(=O)c1cccc(OCC(O)CNCCc2ccc(Cl)cc2)c1 (configuration not stated)	0%	0%	/	/	0%[46.1 µM]	21%	-1%	11%[46.1 µM]
CC(=O)N1c2ccccc2C2(O)N=C(C)SC12 (configuration not stated)	-3%	-20%	1%	-11%	42%	3%	-6%	10%
NC(=O)C1CCN(C2=C(NS(=O)(=O)c3ccc(Cl)cc3)C(=O)c3ccccc3C2=O)CC1	-1%	0%	/	/	/	-20%	-1%	/
CCOc1ccc(-c2nnc(SCC(=O)c3ccc(F)cc3)n2-c2ccccc2)cc1	/	/	-1%	1.4%	-11%[46.1 µM]	-7%	/	-12%[46.1 µM]
O=C(c1ccccc1Br)N(Cc1ccco1)C1CCS(=O)(=O)C1 (configuration not stated)	/	/	11%	-0.4%	9%[46.1 µM]	-20%	/	2%[46.1 µM]
COc1ccc(CNC(=O)CSc2nnc(-c3cccnc3)n2N)cc1	/	0%	/	/	?	7%	-15%	-1%
CN=C1N(C)C[C@@H]2[C@@H]3C(=O)N(Cc4ccccc4)C(=O)[C@@H]3[C@](Cc3ccccc3)(C(=O)OC)N12	/	8%	/	/	2%	-7%	-3%	/
COc1ccc(N(C)S(=O)(=O)c2ccc3c(c2)n(C)c(=O)c(=O)n3C)cc1	/	/	-1%	-1.5%	2%[46.1 µM]	-13%	/	5%[46.1 µM]
Cc1nn(CC(=O)NCc2cccc(F)c2)c(=O)c2c(C)n(-c3ccc(Cl)cc3)nc12	/	/	9%	4.1%	/	-18%	/	-17%[46.1 µM]
Cc1cc(C(=O)Nc2nc3ccc(S(C)(=O)=O)cc3s2)c(C)o1	9%	-4%	19%	-8.1%	?	-69%	-20%	?
Cc1ccc(S(=O)(=O)n2nc(-c3ccc(Cl)cc3)nc2NCc2ccco2)cc1	-11%	-1%	-25%	-3.5%	?	-4%	-1%	?
CC/C=C/C(=O)N1CC2(CC(c3cccc(NC(=O)CCCCC)c3)=NO2)C[C@H]1C(N)=O (some centres not stated)	0%	-1%	/	/	/	2%	-16%	/
O=C(CSc1nnc(-c2ccccc2)n1-c1ccccc1)c1cccs1	-40%	2%	-2%	1.7%	-20%	-20%	30%	-17%
O=C(NC(=O)c1cccc(F)c1)Nc1ccc(-c2cc(C(F)(F)F)nn2-c2ccccc2)cc1	/	/	0%	-1.1%	-17%[46.1 µM]	0%	/	-1%[46.1 µM]
CCc1cc2c(cc3c(=O)n(CC(=O)NCCc4ccc(OC)cc4OC)nc(CC)n32)s1	/	/	-10%	1.5%	-1%[46.1 µM]	-4%	/	/
COc1ccc(Cc2c(C)nn(-c3nc(C)c(C(=O)Nc4cccc(C(C)=O)c4)s3)c2C)cc1	/	/	4%	-0.5%	9%[46.1 µM]	?	/	6%[46.1 µM]
C=CCNC(=S)/N=c1/ccccn1CCC	-11%	-1%	/	/	5%	-7%	-30%	/
CCOC(=O)Nc1ccc(OC(=O)Oc2ccc(NC(=O)OCC)cc2)cc1	/	/	/	/	?	2%	-4%	14%
Cc1cc(C)nc(NS(=O)(=O)c2ccc(NC(=O)COc3ccccc3F)cc2)n1	/	-4%	/	/	?	62%[activator]	1%	-1%
O=C(CN(C(=O)c1csnn1)c1ccccc1Cl)NC1CCCCC1	10%	-7%	/	/	2%[46.1 µM]	10%	1%	/
O=C1C=C(N(CCO)CCO)C2(CCCCC2)O1	-5%	?	-6%	0.2%	3%	1%	1%	-22%
CCNc1nc(NC(C)C)nc(NS(=O)(=O)c2ccc(C)cc2)n1	-3%	0%	/	/	/	85%[activator]	6%	/
c1ccc(CN2CCc3nc4ccccc4cc3C2)cc1	-35%	15%	/	/	2%[46.1 µM]	22%	-12%	?
COc1cc(C2C3=C(CCCC3=O)Nc3[nH]n(-c4ccccc4)c(=O)c32)ccc1O (configuration not stated)	10%	4%	-18%	-2.8%	-8%	18%	3%	2%
O=C(NC1CCOC1=O)c1ccccc1 (configuration not stated)	/	/	/	/	8%[46.1 µM]	-9%	-16%	0%[46.1 µM]
Cc1cc(C)c(S(C)(=O)=O)c(S(=O)(=O)c2ccc(Cl)cc2)n1	2%	-6%	-1%	1.5%	-11%	-10%	-13%	-1%
COc1cccc(NC(=O)CN(C)C(=O)CCC(=O)c2cc(C)sc2C)c1	/	-2%	/	/	-8%[46.1 µM]	-17%	1%	?
Cc1ccsc1C(=O)N/N=C/c1ccc2c(c1)OCO2	-14%	-33%	4%	-10%	?	-20%	?	?
COc1cc(C)c(C)cc1S(=O)(=O)n1c(C)nc2ccccc21	11%	3%	/	/	0%[46.1 µM]	-5%	3%	6%[46.1 µM]
O=C(NC1CCCCC1)C(c1ccc2ncccc2c1)N(Cc1ccccc1)C(=O)c1cccs1 (configuration not stated)	16%	-7%	5%	-1.4%	5.8µM*	/	-1%	-15%
COc1cc(NC(=O)Cn2nc3c(cc2=O)CC(C)CC3)cc(OC)c1OC (configuration not stated)	/	/	-7%	-1.8%	/	-6%	/	17%[46.1 µM]
O=C(NNC1=NCCCCC1)Nc1ccc(Cl)cc1	-1%	0%	/	/	0%[46.1 µM]	33%[activator]	8%	19%
CC(C)(C)c1ccc(/C=C/C(=O)Nc2ncccn2)cc1	-12%	-22%	-1%	-2.3%	?	0%	-17%	?
c1ccc(CCc2nc(-c3ccc(-n4cccc4)cc3)no2)cc1	-5%	5%	-1%	0.2%	/	-13%	4%	/
CC1CCc2sc3nc(N4CCN(CCO)CC4)n4ncnc4c3c2C1 (configuration not stated)	-31%	-15%	5%	-2.1%	-6%	0%	-8%	7%
CCC(C)NC(=O)CSc1nnc(-c2cc(-c3cccs3)nc3ccccc23)o1 (configuration not stated)	4%	4%	16%	-5.9%	-7%	-22%	-1%	-8%
COC(=O)c1cc(C#N)c(NCc2ccccc2)nc1C	-2%	2%	-3%	2.0%	?	12%	-29%	-6%
